ALR H2O2 inh = inhibitors of human ALR sulfhydryl oxidase, primary screen, biochemical, H2O2 detection, HRP-luminol luminescence, single point; FAD-linked sulfhydryl oxidase ALR (Homo sapiens), P55789; purified ALR, DTT oxidation; inhibition, % (no concentration beside the values); 290,000 compounds, 3.8% hits; AID 485317, 2010;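 active means mean and each replicate at 75% or more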;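 further: stock transfer was 7.5 nL into about 7.5 µL; 0% = neutral wells and 100% = wells with inactivated enzyme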
Target sequence (P55789 whole entry, looked up): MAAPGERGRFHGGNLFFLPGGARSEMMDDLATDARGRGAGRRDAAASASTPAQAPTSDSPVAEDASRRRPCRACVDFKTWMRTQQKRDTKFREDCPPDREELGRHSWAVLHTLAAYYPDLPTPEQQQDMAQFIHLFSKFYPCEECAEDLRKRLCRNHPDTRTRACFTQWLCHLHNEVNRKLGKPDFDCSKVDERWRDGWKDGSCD
UCH37 DUB inh = inhibitors of human UCH37 deubiquitinase, primary screen, biochemical, Ub-AMC cleavage, fluorescence | 330,000 compounds, 0.33% hits | inhibition, % (test concentration not listed) | purified proteasome/UCH37 | AID 588478, 2011;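 active means mean of two replicates above 20%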;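 further: 0% = compound-free wells with enzyme and 100% = wells lacking proteasome; stock transfer was 100 nL into about 20 µL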
Target sequence (Q9Y5K5 whole entry, looked up): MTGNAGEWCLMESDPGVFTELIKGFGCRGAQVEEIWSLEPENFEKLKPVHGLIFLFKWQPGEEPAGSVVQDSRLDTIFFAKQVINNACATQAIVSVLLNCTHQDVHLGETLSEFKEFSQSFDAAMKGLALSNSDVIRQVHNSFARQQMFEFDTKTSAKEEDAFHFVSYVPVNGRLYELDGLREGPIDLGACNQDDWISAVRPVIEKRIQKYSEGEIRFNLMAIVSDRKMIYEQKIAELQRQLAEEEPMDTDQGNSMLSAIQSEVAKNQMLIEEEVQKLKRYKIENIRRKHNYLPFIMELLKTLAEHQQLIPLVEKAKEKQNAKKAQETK
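Material: human UCH37 enzyme supplied as purified proteasome complex. Measure: % inhibition of Ub-AMC cleavage fluorescence. Medium: pH 7.4 Tris-HCl (50 mM) with ovalbumin, ATP-MgCl2, DTT. Times: 30 min preincubation with enzyme, 25 min cleavage at room temperature. Detection: AMC fluorescence intensity at 355/460 nm.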
Beta2AR agonist = beta2AR agonists driving receptor internalization, primary screen, cell-based, FAP fluorogen, flow cytometry; Beta-2 adrenergic receptor (Homo sapiens), P07550; Am2.2-beta2AR cells; reference of the scale not given here; response, % (test concentration not listed); 340,000 compounds, 0.43% hits; AID 504454, 2011;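 active means response above a set limit, near 3 SD of response in nonfluorescent compounds, cut at about 42% in these data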;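 further: stock transfer was 100 nL into about 11 µL; a reference agonist was the positive control; negative values mostly stem from fluorescent compounds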
HNF4A DNA FP = change in binding of human HNF4A to DNA, primary screen, biochemical, fluorescence polarization, FITC-DNA. Hepatocyte nuclear factor 4-alpha (Homo sapiens), P41235. 1 h. activity change, % at 10 µM. 360,000 compounds, 0.3% hits; in the data active means activity change above about 30%, passing the limit was not always enough;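 further: controls were the assay level and a saturating level of protein; the project sought stronger binding though the title names inhibitors; some compounds called inactive have numbers as strong as hits; positive values seem to mean higher polarization but the record does not say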
Target sequence (P41235 whole entry, looked up): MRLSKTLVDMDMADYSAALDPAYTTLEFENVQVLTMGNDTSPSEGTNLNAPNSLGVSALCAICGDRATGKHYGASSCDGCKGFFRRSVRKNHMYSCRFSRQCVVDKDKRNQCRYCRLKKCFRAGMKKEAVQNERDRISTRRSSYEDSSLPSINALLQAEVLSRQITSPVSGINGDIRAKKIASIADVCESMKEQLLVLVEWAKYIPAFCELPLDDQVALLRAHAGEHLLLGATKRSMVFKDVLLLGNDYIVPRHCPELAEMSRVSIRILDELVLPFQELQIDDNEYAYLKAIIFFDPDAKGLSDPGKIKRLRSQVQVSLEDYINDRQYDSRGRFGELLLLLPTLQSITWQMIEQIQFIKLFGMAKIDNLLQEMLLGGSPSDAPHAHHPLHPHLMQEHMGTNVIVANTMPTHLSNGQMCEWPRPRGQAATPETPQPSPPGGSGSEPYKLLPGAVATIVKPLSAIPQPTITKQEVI
Ecoli growth = E. coli growth inhibition, primary screen, OD600; Escherichia coli growth, 23 h; stronger effect = lower value; OD600 absorbance (no concentration beside the values); 330,000 compounds, 0.21% hits;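 active means OD600 absorbance below the run mean of sample wells minus 3.6 SD, in any replicate, cut at about 0.56 in these data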;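 further: stock transfer was 300 nL into about 60 µL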
Ecoli rRNA inh = reduced GFP signal of wild-type E. coli, primary screen, bacterial rRNA inhibitor project, GFP/RFP fluorescence, OD600, single point | 350,000 compounds, 1.6% hits | AID 720706, 2013 | GFP signal change (wild-type ribosome), % (no concentration beside the values) | E. coli WT GFP vs humanized-ribosome RFP mutants, 24 h; stronger effect = lower value; DMSO median 0, no signal -100;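 active means significant combined selectivity score with lowered wild-type GFP, culture density cut under 30%, mutant RFP and density less affected; inactive means any of these conditions unmet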; further: one replicate is shown; some compounds called inactive have numbers as strong as hits
FGF22 binding = binders of human FGF22 protein, primary screen, FGF22 synaptogenesis inhibitor project, biophysical, thermal shift, single point; 340,000 compounds, 1.5% hits; calls only at 9.99 µM; recombinant FGF22 thermal shift, SYPRO orange fluorescence; percent of sucrose octasulfate shift, DMSO zero;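 active means melting point raised past a set limit in the mean and every replicate; three in four hits are not shown here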
Ecoli rRNA inh OD600 = recorded beside Ecoli rRNA inh, whose call it bears; OD600 change, %; measured here: OD600 growth;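 optical density of the mix in the first replicate; 0 = DMSO median and -100 = no signal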
Ecoli rRNA inh RFP = also measured in Ecoli rRNA inh; calls as there; RFP signal change, %; measured here: RFP humanized mutant strains;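 first replicate; 0 = DMSO median and -100 = no signal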
Active calls of the source: *; i = inactive; / = not tested or not shown; & = joins results of further samples. An excerpt, so the mix of outcomes need not match the whole.

Order of values – ALR H2O2 inh, UCH37 DUB inh, Beta2AR agonist, HNF4A DNA FP, Ecoli growth, Ecoli rRNA inh, Ecoli rRNA inh OD600, Ecoli rRNA inh RFP, FGF22 binding
> COC(=O)c1c(C(=O)OC)c(-c2ccc(F)cc2)n2c1CS(=O)(=O)C2
→ /, -2.7, -4.8, 3.4, 0.653, 4.6, 0.1, -2.1, i
> CCCCn1c(N)c(N(CCOC)C(=O)c2ccc(N3C(=O)CCC3=O)cc2)c(=O)[nH]c1=O
→ -4.5, 2.0, 7.2, 4.7, 0.635, 0.1, -0.4, -1.2, i
> COc1ccc(-c2cc(C(F)(F)F)nc(SCC(=O)Nc3cc(C)on3)n2)cc1OC
→ -3.7, -28.6, -8.0, -0.4, 0.712, /, /, /, /
> CC(C)c1ccc(N=C(N)N=C(N)N)cc1
→ -14.9, 3.2, 12.0, -0.6, 0.655, 19.8, 33.1, -8.9, i
> CCOc1ccc(OCCC(=O)OCC(=O)NNC(=O)c2ccccc2)cc1
→ 15.6, 1.0, 0.4, -9.7, 0.633, 9.8, 7.1, 0.4, i
> Cc1ccc(NC(=O)COC(=O)CCC(=O)c2cccs2)c(Br)c1
→ /, -0.2, 5.2, -0.9, 0.693, 5.0, 11.2, 3.0, i
> CC1CCN(S(=O)(=O)c2ccc(NC(=O)CCNC(=O)c3ccc(Cl)cc3)cc2)CC1
→ /, 0.3, -12.9, 5.5, 0.701, 11.7, 9.6, -0.6, i
> O=C(CN1CCCC1)Nc1cc(C(F)(F)F)cc(C(F)(F)F)c1
→ -1.7, 2.6, -0.7, -1.9, 0.635, -3.6, -6.2, -3.8, i
> Cc1ccc(NC(=O)CSCC(=O)O)c(C)c1
→ -8.9, 1.2, -0.3, -6.7, 0.672, /, /, /, /
> O=C1/C(=C\c2cc(Cl)c(O)c(Cl)c2)SC(=S)N1Cc1ccccc1
→ -9.9, /, /, -98.9, /, 18.2, 6.3, 9.4, i
> Cc1ccc(C(=O)N/N=C/c2ccc(S(=O)(=O)O)o2)c(Cl)c1
→ 44.4, /, 3.6, 1.0, /, /, /, /, /
> CN1CCC(OC(=O)c2ccccc2)CC1
→ -9.7, /, 14.1, -0.3, /, -5.9, 2.6, -1.7, i
> CC(C)c1cc(C(=O)Nc2cccc(Cl)c2)no1
→ 1.8, 4.0, 3.5, -0.7, 0.689, /, /, /, /
> COc1ccc(C(=O)NCC(=O)OCC(=O)c2ccc(Cl)cc2)cc1OC
→ -32.3, -5.3, 3.7, 5.7, 0.709, 4.6, 3.0, -1.1, i
> O=C(C1COc2ccccc2O1)N1CCCC1 (stereo unspecified)
→ -1.9, 3.7, -3.0, -1.5, 0.691, /, /, /, /
> FC(F)(F)c1ccccc1-n1c(-c2cnccn2)n[nH]c1=S
→ 42.8, 7.1, -0.1, 1.4, 0.723, /, /, /, i
> COCCN(C(=O)COC(=O)c1ccc2[nH]c(C)c(C)c2c1)c1c(N)n(Cc2ccccc2)c(=O)[nH]c1=O
→ 1.8, -1.3, 8.1, 11.0, 0.679, -5.4, -6.3, 5.2, i
> O=C1CSC(=S)N1/N=C/c1ccc(C(F)(F)F)cc1
→ /, /, 9.1, 0.4, /, 2.4, 6.4, 0.8, i
> O=C(COC(=O)CCc1nc2ccccc2c(=O)[nH]1)Nc1ccc(Cl)cn1
→ /, -4.3, 0.3, -0.7, 0.71, 15.7, 22.5, 7.7, i
> CC(=O)c1cccc(NC(=O)CNC(=O)Cc2ccccc2)c1
→ -4.3, 5.0, 5.6, -0.1, 0.698, 4.0, 4.7, -2.3, i
> CCN(CC)CCCNC(=O)c1ccc2c3n(nc2c1)-c1ccc(Cl)cc1CO3
→ 99.2*, -1.2, -2.1, -1.8, 0.68, 13.6, 4.9, 7.9, i
> CCC1=C(OC(=O)N(CC)CC)N2C(=O)OC(=NCC3CC3)[C@]2(C)[C@H]2C1=CC[C@H]1C(=O)N(CC(=O)OC)C(=O)[C@H]12
→ -4.9, 2.5, 6.5, -0.1, /, 11.0, 9.9, -0.5, i
> CCOC(=O)N1C(=O)C[C@](Sc2ccc(C)cc2)(C(=O)OC)[C@H]1c1ccccc1
→ /, /, /, -2.6, /, -4.8, -2.5, 10.0, i
> O=S(=O)(Cc1ccc(Cl)cc1)NCC1CCCO1 (stereo unspecified)
→ -10.1, 0.2, -0.2, 2.4, 0.677, /, /, /, /
> NC(=O)c1nsc(C(=O)N(Cc2cccnc2)C(C(=O)NC2CCCC2)c2ccc(F)cc2)c1N (stereo unspecified)
→ -4.1, -70.4, 1.4, 0.3, 0.704, 0.9, 15.2, -1.8, i
> CCOc1ccc(S(=O)(=O)NCC2CCCO2)c2ccccc12 (stereo unspecified)
→ -10.4, -0.9, -10.9, 4.0, 0.63, -18.0, -13.3, -2.8, i
> COc1cc(C2C(N3C(=O)c4ccccc4C3=O)C(=O)N2c2ccc(C)c(C)c2)cc(OC)c1OC (stereo unspecified)
→ 1.7, 0.2, -0.6, -1.1, 0.713, 17.2, 16.8, 0.3, i
> CN1CCN(CCCNC(=O)c2nnc(Cc3c(F)cccc3Cl)o2)CC1
→ -2.7, 0.3, 0.5, 2.5, 0.732, 16.2, 8.4, -4.6, i
> CN(C)c1ccc(NC(=O)Cn2c(=O)n(Cc3ccccc3)c(=O)c3ccccc32)cc1
→ 2.3, 4.8, -3.7, -0.3, 0.717, /, /, /, /
> CCC(=O)Nc1cccc(-c2ccc(N3CCCCC3)nn2)c1
→ 0.1, 0.1, 11.5, 1.2, 0.609, -7.0, -2.6, -4.4, i
> CC(C)C(OC(=O)c1nsc(Cl)c1Cl)C(=O)NC1CCCCC1 (stereo unspecified)
→ 1.2, 1.9, 3.6, 1.6, 0.659, /, /, /, i
> CCOc1ccc(N(CC(=O)NCCc2ccc(C)cc2)S(=O)(=O)c2c(C)noc2C)cc1
→ -5.3, 5.5, -1.3, 3.4, 0.679, 2.7, 3.5, -6.0, i
> COc1cc(/C=C/C(=O)OCC(=O)c2c(N)n(C)c(=O)n(C)c2=O)ccc1OC(F)F
→ -14.8, 3.4, -9.0, 2.2, 0.688, 3.7, 9.3, 0.0, i
> COc1cc(OC)c(OC)cc1CN1CCN(S(=O)(=O)c2ccc(F)cc2)CC1
→ -36.0, 6.7, 2.1, 1.7, 0.713, /, /, /, /
> Cc1ccccc1C(=O)NCC(C)NC(=O)c1ccccc1C (stereo unspecified)
→ -5.4, 2.6, -2.9, 2.1, 0.688, 17.1, 3.4, -0.4, i
> Cc1nnc(SCC(=O)c2c(N)n(C3CC3)c(=O)[nH]c2=O)n1-c1ccccc1
→ -0.1, 2.9, -5.3, 4.6, 0.703, 2.1, -12.8, 5.4, i
> CC(C(=O)N1CCc2ccccc21)n1cnc2c1c(=O)n(C)c(=O)n2C (stereo unspecified)
→ /, 3.6, -0.4, -1.2, 0.698, /, /, /, i
> COC(=O)[C@@]12CCCN1[C@H](c1ccc(-c3ccc(Cl)c(Cl)c3)c(OC)c1)[C@H]1C(=O)N(C)C(=O)[C@H]12
→ -0.3, 5.3, 5.6, 1.5, /, 1.8, -4.5, -8.4, i
> Cc1sc2ncnc(OCC(=O)N3CCN(S(=O)(=O)c4ccccc4)CC3)c2c1C
→ -2.6, 2.1, -0.7, -0.1, 0.65, /, /, /, /
> CC1CCc2ccccc2N1C(=O)c1cccs1 (stereo unspecified)
→ -9.3, 2.2, -0.5, -0.2, 0.727, /, /, /, /

Brought forward from above: two compounds, then new ones.
Order of values – ALR H2O2 inh, UCH37 DUB inh, Beta2AR agonist, HNF4A DNA FP, Ecoli growth, Ecoli rRNA inh, Ecoli rRNA inh OD600, Ecoli rRNA inh RFP, FGF22 binding
> Cc1sc2ncnc(OCC(=O)N3CCN(S(=O)(=O)c4ccccc4)CC3)c2c1C
→ -2.6, 2.1, -0.7, -0.1, 0.65, /, /, /, /
> CC1CCc2ccccc2N1C(=O)c1cccs1 (stereo unspecified)
→ -9.3, 2.2, -0.5, -0.2, 0.727, /, /, /, /
> CC1c2cc3c(cc2CCN1C(=O)c1ccc(Cl)cc1)OCCCO3 (stereo unspecified)
→ -4.8, 1.3, 3.1, 5.8, 0.643, 0.3, -18.5, -0.8, i
> CSc1ccc(S(=O)(=O)NCC(=O)OCC(=O)N(C)CC(=O)Nc2ccccc2Cl)cc1[N+](=O)[O-]
→ -9.8, 4.3, 1.4, 1.1, 0.667, 5.6, -1.1, 2.6, i
> COc1ccc(NC(=O)c2cccc3c(Br)cccc23)cc1
→ -2.0, 1.8, 3.9, 0.8, 0.726, 14.2, 9.5, 4.1, i
> CCN(CC)CCNC(=O)c1ccc(NC(=O)c2ccc(Cl)c(S(=O)(=O)N3CCCCCC3)c2)cc1
→ -0.1, 3.5, 24.6, 3.4, 0.675, -25.1, -34.2, 36.8, i
> CC1=NN(Cc2c(C)nn(Cc3ccccc3)c2C)C(C)(C)C1
→ -6.2, 0.4, -0.8, 0.0, 0.726, 10.9, 6.6, 2.3, i
> CN1CCN(C2CCCCCC2)CC1
→ -26.0, 4.7, -1.5, 0.1, 0.703, /, /, /, /
> CC(=O)NC(c1cccs1)c1cc([N+](=O)[O-])c2cccnc2c1O (stereo unspecified)
→ -66.2, 20.4*, -4.6, -0.3, 0.598, -49.8, -65.6, -27.4, i
> O=C(COc1ccccc1)Nc1ccc2c(c1)nc1n2CCSC1
→ /, 1.7, -8.8, 4.5, 0.665, /, /, /, /
> COc1ccc(-n2cc(-c3ccccc3)c3c(=O)[nH]cnc32)cc1
→ -3.5, -0.2, 0.5, 8.1, 0.728, 3.5, -1.7, 3.0, i
> C[C@@H]1CN([C@@H](C)CO)C(=O)c2cc(NS(=O)(=O)c3ccc(F)cc3)ccc2O[C@@H](C)CCCCO[C@H]1CN(C)C(=O)NC1CCCCC1
→ /, /, /, -3.4, /, 4.6&1.2, -2.8&-1.4, 1.3&-0.8, i
> Cc1cccc2nc(Cn3c(=O)n(CCC(=O)NCc4ccco4)c(=O)c4ccccc43)cc(=O)n12
→ /, /, 9.4, -0.8, /, 6.2, 5.8, -5.0, i
> CCC(C)NC(=O)CN(C)S(=O)(=O)c1ccc2c(c1)c(=O)n(C)c(=O)n2C (stereo unspecified)
→ -8.8, 5.9, 2.7, -5.4, 0.718, 8.8, 9.5, -0.8, i

Assay outcomes from PubChem BioAssay.
